HIV TAR-Tat = TAR RNA-Tat peptide displacers, HIV-1, primary screen, biochemical, FRET, FAM/TAMRA-labeled Tat | HIV-1 TAR RNA, Tat peptide displacement FRET; hits give high values | z-score (no concentration beside the values) | 100,000 compounds, 0.6% hits;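 further: score is relative to mean and SD of negative controls; some compounds called inactive have numbers as strong as hits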
CDC25B-CDK2 inh = primary biochemical HTRF screen for blockers of M-phase inducer phosphatase 2 binding to CDK2/cyclin A. 94,000 compounds, 0.72% hits. z-score (test concentration not listed). P30305+P24941. AID 1259370, 2018. HTRF CDC25B-CDK2/CyclinA binding, anti-His/anti-Flag; hits give high values;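 further: score is relative to mean and SD of negative controls; strong numbers were not always called active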
Active calls of the source: *; · = no result given.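 How the source made its calls: active means z-score from 3 up in half or more of its runs; inactive means the rest.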 Not a hit list. Share with any hit: about 0.9%.

SMILES	HIV TAR-Tat	CDC25B-CDK2 inh
COC(=O)c1cc(S(=O)(=O)Nc2cccc3c2CCCC3)cn1C	0.51	·
O=C(Nc1ccc2oc(-c3ccccc3Br)nc2c1)c1cccnc1	·	1.17
COC(=O)c1cc2sccc2n1Cc1ccc(F)cc1Cl	0.56	0.1
Cn1ncc(Br)c1C(=O)O	1.96	-2.07
Cc1nnc(N2C(=O)c3oc4ccccc4c(=O)c3C2c2cccc(Cl)c2)s1 (configuration not stated)	0.61	-0.81
Cc1ccccc1C1C(C#N)=C(N)N(c2ncn[nH]2)C2=C1C(=O)CCC2 (configuration not stated)	0.8	-1.04
O=C(NCc1ccc2c(c1)OCO2)c1nc(S(=O)(=O)Cc2ccc(F)cc2)ncc1Cl	1.6	-2.59
Cc1nn2c(=O)cc(CSc3ccccc3NS(=O)(=O)c3ccc(Cl)cc3)nc2s1	1.82	·
CCSc1ncc(Cl)c(C(=O)Nc2nc3ccc(OC)cc3s2)n1	1.43	1.51
Cn1nc(C(=O)N(Cc2ccco2)CC2CCCO2)c2c1-c1ccccc1OC2 (configuration not stated)	1.5	-0.99
CCn1c(=S)sc2c(=O)n(-c3ccccc3)c(SC)nc21	2.15	·
O=C(NCCN1CCOCC1)C(=O)NCc1ccco1	-0.77	0.16
COc1ccc(OC)c(NC(=O)CCc2nnc3ccc(N4CCOCC4)nn23)c1	0.46	·
COc1ccc(Cn2nnc3c(C)nnc(N4CCOCC4)c32)cc1	1.85	0.85
Cc1nc(N2CCCC2)cc(N2CCN(C(=O)Nc3ccc(F)cc3)CC2)n1	0.34	-2.63
COC(=O)c1ccc2c(c1)sc1nc(-c3ccc(Cl)cc3)cn12	1.72	-2.03
COCCn1c(CN2CCNCC2)nc2ccccc2c1=O	1.25	·
CCCNc1ncnc2oc(C)c(C(=O)OCC)c12	0.57	·
CCCNS(=O)(=O)c1ccc2c(c1)N(C(C)=O)CCS2	2.3	·
O=C1ON(c2ccccc2)C(=O)/C1=C/c1ccccc1	·	-0.62
CCCC1c2cccn2CCN1C(=O)Nc1ccccc1Br (configuration not stated)	-1	·
Nc1cccc2c(-c3ccccc3)ccnc12	-1.39	-4.47
Cc1cccc(NC(=O)CSc2nc(-c3cccs3)cc(C(F)(F)F)c2C#N)n1	·	-6.55
Cc1[nH]c2[nH]n(-c3ccccc3)c(=O)c2c(=O)c1CCC(C)C	1.34	-0.7
O=C(Nc1ccccc1)C1=Cc2cc(Cl)ccc2OC=C1	-0.29	-2.05
Fc1cc(F)cc(-c2noc3ncnc(NCc4cccc(Cl)c4)c23)c1	0.61	·
CN(C)S(=O)(=O)c1cc(S(=O)(=O)N(C)C)c(Cl)s1	·	1.14
CCC(C)NC(=O)Cn1nc(C)n2cccc2c1=O (configuration not stated)	2.32	-1.13
CCOC(=O)c1nc(N2CCN(c3cc(C)ccc3C)CC2)c2c(C)noc2n1	-0.8	·
CC1CC(C)(C)CC2(C1)NC(=S)N(C)N2 (configuration not stated)	·	-0.44
O=C1c2cccc3c([N+](=O)[O-])ccc(c23)C(=O)N1CCCN1CCOCC1	·	-3.48
Cc1cc(NC(=O)CSc2nc(-c3ccco3)nc3c2c(=O)n(C)c(=O)n3C)no1	·	-1.09
CCOC(=O)C1CCN(c2c(N3CCOCC3)c(=O)c2=O)CC1	1.91	-1.16
COc1cc(NC(=O)N2CSC[C@@H]2C(=O)NCc2csc(C)n2)cc(OC)c1	0.96	·
CC1Cc2ccccc2N1S(=O)(=O)c1ccc2[nH]c(=O)c(=O)[nH]c2c1 (configuration not stated)	0.19	0.1
O=C(c1cccn1-c1nnc(N2CCCCC2)s1)N1CCN(c2ccc(Cl)cc2)CC1	0.38	·
Cc1cc(C)c(N2C(=O)c3ccncc3C2=O)c(C)c1	0.87	·
CCOC(=O)Cn1c(=O)oc2cc(S(=O)(=O)N3CCC(N4CCCCC4)CC3)ccc21	·	3.84
CC1(C)CC(NC(=O)CN2CCCCC2)CC(C)(C)N1	·	-1.88
O=C(Cn1ncn2c(cc3cc(F)ccc32)c1=O)NC1CCCc2ccccc21 (configuration not stated)	0.92	-1.35
O=C(CCCc1nc(-c2ccncc2)no1)Nc1cccnc1	1.07	-0.36
CC1(C)CC(=O)C2=C(C1)NC(=O)CC2c1ccsc1 (configuration not stated)	2.35	-0.87
CC(C(=O)O)c1ccc(CC2CCCC2=O)cc1 (configuration not stated)	0.2	-0.47
CCOC(=O)C1CCN(C(=O)CCc2nc3sc4c(c3c(=O)[nH]2)CCC(C(C)(C)C)C4)CC1 (configuration not stated)	1.26	·
O=C1NCCN1CCNS(=O)(=O)c1cc(Cl)sc1Cl	·	-0.28
O=C(CCCN1C(=O)c2cccnc2Oc2ccc(Cl)cc21)N1CCC(N2CCCCC2)CC1	2.22	·
Cc1cccc(NC(=O)c2cnc3sccn3c2=O)n1	·	-1.06
COc1cc(NC2c3ncccc3C(=O)N2Cc2ccco2)cc(OC)c1 (configuration not stated)	1.53	2.83
CN1C(=O)C(C)(C)c2cc(S(=O)(=O)N(C)CC(=O)NC3CCCC3)ccc21	2.18	·
COc1ccc2cc(CCN3C(=O)c4ccccc4C3=O)c(=O)[nH]c2c1	·	-1.32

Entries of single compounds from above. Screens in order: HIV TAR-Tat | CDC25B-CDK2 inh
Cc1cccc(NC(=O)c2cnc3sccn3c2=O)n1 is entered as · | -1.06
CC(C(=O)O)c1ccc(CC2CCCC2=O)cc1 (configuration not stated) is entered as 0.2 | -0.47
COc1ccc2cc(CCN3C(=O)c4ccccc4C3=O)c(=O)[nH]c2c1 is entered as · | -1.32
CN1C(=O)C(C)(C)c2cc(S(=O)(=O)N(C)CC(=O)NC3CCCC3)ccc21 is entered as 2.18 | ·

Following part
SMILES	HIV TAR-Tat	CDC25B-CDK2 inh
CS(=O)(=O)N1CCCc2cc(C(=O)NC3CCCC3)ccc21	1.38	-1.1
O=C1CC(c2ccc(Cl)cc2)Cc2nc(N3CCc4ccccc4C3)ncc21 (configuration not stated)	1.69	-2.69
CC(=O)NC1=NN(C(C)=O)C(C)(c2cccnc2)S1 (configuration not stated)	·	1.07
COC(=O)C1=C(C)NC2=C(C(=O)CCC2)C1c1ccccc1C(F)(F)F (configuration not stated)	·	-1.76
CCCS(=O)(=O)NCCc1csc2nc(-c3ccc(C)cc3)nn12	2.22	·
N#CC1=C2SCN(c3ccccc3)CN2C(=O)CC1c1ccc(Br)cc1 (configuration not stated)	-4.1	3.95*
CC(C)(C)c1ccc(Cn2c(CN3CCOCC3)nc3ccccc32)cc1	-0.72	0.54
Cc1cc(-c2ccc(S(=O)(=O)Nc3cccc(C)c3C)s2)on1	0.95	·
CCCCCCCN=C(C)c1ccccc1O	·	-2.25
CCOC(=O)c1[nH]c(C)c(CN(CC2CCCO2)C(=O)c2ccc(C)cc2)c1C (configuration not stated)	0.26	·
COc1ccccc1N1CCN(c2ncc3c(n2)CCN(CC(C)C)C3)CC1	0.74	·
CN1CCN(c2ccc(NC(=O)Cc3ccccc3)cc2)CC1	·	-1.41
CC(=O)Nc1ccc(S(=O)(=O)Nc2ccccc2SCc2cc(=O)n3oc(C)cc3n2)cc1	-0.34	·
Cc1ccc(-n2nnc(-c3ccc(C(C)(C)C)cc3)n2)cc1	1.4	-2.26
CC1CCN(C(=O)C2CCC(CNS(=O)(=O)c3ccc4c(c3)C(C)(C)C(=O)N4C)CC2)CC1 (configuration not stated)	1.96	·
O=C(OCc1cc(=O)n2nc(-c3cccs3)sc2n1)c1ccccc1Cl	-0.7	·
O=C(Nc1ccc(S(=O)(=O)Nc2nccc(/C=C/c3cccs3)n2)cc1)Nc1ccc(Cl)c(Cl)c1	·	-2.04
COc1ccc(-c2noc(N3CCc4ccccc43)n2)cc1	-1.79	·
CCN(CC)CCNS(=O)(=O)c1c(C)c(C)c(C)c(C)c1C	·	-1.6
COc1ccc(NC(=O)Nc2cccs2)cc1OC	0.04	7.79
Cc1cccn2cc(CNC(=O)CC3CCCC3)nc12	·	-0.46
Cc1cc(N2CCN(c3ccccc3)CC2)nc(-n2nc(C)cc2C)n1	0.74	·
O=C1c2oc3ccccc3c(=O)c2C(c2ccc(O)cc2)N1Cc1ccccc1 (configuration not stated)	0.71	-0.97
CCc1ccc(C(=O)CC2(O)C(=O)Nc3c(C)cccc32)cc1 (configuration not stated)	-0.79	3.65
Cc1cccc(-c2nc(Cn3c(=O)n(C(C)C)c(=O)c4ccccc43)c(C)o2)c1	2.41	-1.42
O=C(Cn1cnc(S(=O)(=O)N2CCOCC2)c1)NC1CCCc2ccccc21 (configuration not stated)	0.89	·
CN(CCCNC(=O)CN(C)S(=O)(=O)c1ccc2c(c1)CCC(=O)N2)c1ccccc1	·	-1.64
CCn1nc(C)c(CCNS(=O)(=O)c2ccccc2Cl)c1C	2.05	·
CN(C)c1nc(N)c([N+](=O)[O-])c(NCc2ccccc2)n1	1.24	·
Cc1ccccc1-c1nc(CN2N=NC3C(=O)N(c4cccc(Cl)c4)C(=O)C32)c(C)o1 (configuration not stated)	-1.4	·

Structures from the list above that contain a nitro group on carbon:
SMILES	HIV TAR-Tat	CDC25B-CDK2 inh
O=C1c2cccc3c([N+](=O)[O-])ccc(c23)C(=O)N1CCCN1CCOCC1	·	-3.48
CN(C)c1nc(N)c([N+](=O)[O-])c(NCc2ccccc2)n1	1.24	·

Continued:
SMILES	HIV TAR-Tat	CDC25B-CDK2 inh
O=C(O)CCC(C(=O)O)N1C(=O)c2ccccc2C1=O (configuration not stated)	·	2.09
CC1CCCCN1C(=O)Nc1cn(C)c(=O)c2ccccc12 (configuration not stated)	-5.19	·
N[C@@H]1[C@@H](O)[C@H](O)[C@@H](CO)O[C@@H]1O	0.55	·
Cc1ccc2cc3c(nc2c1)N(C(=O)c1ccc(S(=O)(=O)N(C)C)cc1)CC3	-0.82	-1.35
Cc1cc(NCCO)n2nc(Cc3ccc(Cl)cc3)nc2n1	1.1	-0.25
Cc1nc2c(c(Nc3cc(Cl)ccc3C)n1)CCC2	0.49	-0.03
Cc1ccn2c(=O)c(NC(=O)COc3ccc(Cl)cc3)c(C)nc2c1	0.78	·
O=C(Cn1c2c(c(=O)n3ncnc13)CCC2)N/N=C/c1cccs1	·	-1.91
O=C1/C(=C/c2ccco2)COC/C1=C\c1ccco1	·	-0.8
O=C(CSc1nnc2c(n1)[nH]c1ccccc12)Nc1ccccc1	0.72	-1.17
CCOC(=O)N1CCN(c2nc(-c3ccc(C)cc3)cc(C(F)F)n2)CC1	0.72	-0.77
O=C(NC1CCCC1)c1ccc(N2CCCS2(=O)=O)cc1	1.05	·
COc1ccc(C(=O)c2cn(Cc3ccc(Cl)cc3)c3cc4c(cc3c2=O)OCCO4)cc1	1.46	-3.1
Cc1[nH]c2ccccc2c1Sc1ccc(Cl)cc1	·	-1.17
COc1ccc(C(=O)CC2(O)C(=O)Nc3ccc(OC)cc32)cc1 (configuration not stated)	2.14	·
C#CCOc1nc(OCC#C)nc(N2CCCCC2)n1	3.34	-1.66
CCc1ccc(OCCSc2nc(-c3ccco3)nc3cc(=O)[nH]n23)cc1	0.35	·
O=C(Nc1ccc2c(c1)OCCCO2)Nc1cc2ccccc2s1	·	-1.42
Cc1cc(C)n2c(SCCO)nnc2n1	·	-1.65
CN1CCN(CC(=O)Nc2ccc(S(N)(=O)=O)cc2)CC1	·	-1.52
COc1ccc(S(=O)(=O)NNC(=O)c2cccn2-c2ccc(F)cc2)cc1	·	-3.77
COCCNc1nc(N)c([N+](=O)[O-])c(Nc2ccc(C)c(C)c2)n1	0.46	·
Cc1ncc(-c2ccc(S(=O)(=O)NCc3cccs3)cc2)o1	1	·
CCC(=O)N1c2ccc(S(=O)(=O)NC(C)(C)C)cc2CC1C (configuration not stated)	-0.52	·
CCC(=O)Nc1ccc(-c2nnc(C(F)(F)F)o2)cc1C	·	-0.46
COc1cccc(NC(=O)c2cnc3sccn3c2=O)c1	0.85	-11.5
CCCCCCCCCCCCCCOS(=O)(=O)c1cc(OC)ccc1OC	·	-1.82
O=C(CN1C(=O)CSc2ccc(S(=O)(=O)N3CCOCC3)cc21)NCCCN1CCCC1	0.1	-2.75
O=C(CSCc1cnn(-c2ccccc2)c1-n1cccc1)NCc1cccs1	0.94	-1.57
CC1(C)CC(=O)C2=C(C1)Nc1ncnn1C2c1ccc(Cl)cc1 (configuration not stated)	-1.46	1.2
Cc1cc2c(cc1C)C(c1cc3c(cc1Cl)OCO3)CC(=O)N2 (configuration not stated)	2	·
O=C(Nc1ccc(Cl)cn1)c1ccc(COc2ccccc2Br)o1	-0.89	-0.37
c1nc(N2CCN(C3CCCCC3)CC2)c2nc3n(c2n1)CCCCC3	-0.55	·
CCCCN1C(C)=NS(=O)(=O)c2cc(C(=O)NC3CC3)ccc21	1.26	·
O=C(c1cc2c(s1)-c1ccc(Cl)cc1S(=O)(=O)C2)N1CCC(N2CCCCC2)CC1	1	-2.88
COc1ccc(NC(=O)CCC2=NS(=O)(=O)c3ccccc3N2)cc1OC	0.59	·
O=C(O)c1ccccc1S(=O)c1ccccc1CCO (configuration not stated)	·	-2.17
CCN1CCCC1CNC(=O)C(C)n1nc(C)c2sc3ccccc3c2c1=O (configuration not stated)	1.55	-0.29
Cc1ccc2c(=O)c(C(=O)c3ccccc3)coc2c1	0.71	0.31

Entries from the list above that have a tert-butyl group, in the order listed:
SMILES	HIV TAR-Tat	CDC25B-CDK2 inh
CCOC(=O)C1CCN(C(=O)CCc2nc3sc4c(c3c(=O)[nH]2)CCC(C(C)(C)C)C4)CC1 (configuration not stated)	1.26	·
CC(C)(C)c1ccc(Cn2c(CN3CCOCC3)nc3ccccc32)cc1	-0.72	0.54
Cc1ccc(-n2nnc(-c3ccc(C(C)(C)C)cc3)n2)cc1	1.4	-2.26
CCC(=O)N1c2ccc(S(=O)(=O)NC(C)(C)C)cc2CC1C (configuration not stated)	-0.52	·

Compound activity from PubChem BioAssay.
